StopGo reporter – High Throughput Screening for Foot and Mouth Disease Virus Antivirals | human cells with a luciferase reporter of 2A StopGo recoding; control for the full effect not named in the record | AID 1159524, 2015 | Potency, µM (titrated, usually from 57.9 µM), inactives show at the top dose signal change, negative = less light | actives 1.2% (n = 410,000); active = well fitted falling curve with a large enough effect; inconclusive = small, poorly fitted or top-dose-only effect; inactive = no such curve, though single readings can be large or run the other way; tested in HEK293T cells; also: % is scaled to controls: 0 for no effect and ±100 for the full control effect; nearly all actives have a fitted effect of over 45% in size; luciferase light after 4 h
RE007 growth inh – qHTS Assay for Inhibitors of the HIV-1 protein Vpr; AID 651644, 2012; S. pombe RE007 Vpr strain, BacTiter-Glo ATP luminescence, 24 h; control for the full effect not named in the record; actives 0.21% (n = 360,000); Potency, µM (series often up to 92.2 µM), for the others: at the highest dose activity change, negative = less growth; active = well fitted falling curve with a large enough effect; inconclusive = small, poorly fitted or top-dose-only effect; inactive = no such curve, though single readings can be large or run the other way;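 also: % is scaled to controls: 0 for no effect and ±100 for the full control effect; nearly all actives have a fitted effect of over 50% in size; the assay follows cell death caused by Vpr and the record does not say whether a fall means rescue or toxicity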
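Fission yeast RE007 carrying one integrated HIV-1 vpr copy, seeded at OD 0.01 in PMG+AL medium with 23 nL pinned compound. Grown 24 h at 30 degrees; viability read by BacTiter-Glo luminescence after 5 min.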
Cruzain noTriton – qHTS Assay for Promiscuous and Specific Inhibitors of Cruzain (without detergent); actives 2.3% (n = 200,000); Potency, µM, for the others: max response, negative = inhibition, hits mostly inhibitors; AID 1476, 2009; Cruzipain (Trypanosoma cruzi), P25779; purified cruzain, Z-FR-AMC fluorescence, no detergent;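 also: plate controls were enzyme without inhibitor for no effect and buffer without enzyme for full effect; nearly all actives have a fitted effect of over 40% in size; top concentration of the series not given in the record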
Target sequence (P25779 123-467 limits assumed): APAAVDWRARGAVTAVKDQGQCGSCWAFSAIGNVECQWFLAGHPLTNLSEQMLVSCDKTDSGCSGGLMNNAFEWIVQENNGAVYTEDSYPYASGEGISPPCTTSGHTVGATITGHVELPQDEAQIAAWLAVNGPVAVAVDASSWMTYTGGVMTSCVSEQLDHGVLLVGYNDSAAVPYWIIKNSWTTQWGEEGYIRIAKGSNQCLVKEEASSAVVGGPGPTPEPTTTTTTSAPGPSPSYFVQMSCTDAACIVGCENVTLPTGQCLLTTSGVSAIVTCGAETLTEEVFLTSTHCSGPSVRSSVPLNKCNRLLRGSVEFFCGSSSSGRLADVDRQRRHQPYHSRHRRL
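Detergent-free condition (0.00005% Triton X-100) in acetate buffer pH 5.5 with DTT. 1.5 nM enzyme and compound were pre-mixed 15 min, then 2 uM Z-FR-AMC substrate added; reaction progress from fluorescence change between first and third reads (60 s).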
SARS PLP yeast – qHTS of Yeast-based Assay for SARS-CoV PLP | actives 0.19% (n = 330,000) | Potency, µM (top dose mostly 32.9 µM), for the others: top-dose activity, positive = growth rescue | S. cerevisiae expressing SARS-CoV PLpro, growth rescue; control for the full effect not named in the record | AID 485353, 2010; active means well fitted rising curve with a large enough effect; inconclusive means small, poorly fitted or top-dose-only effect; inactive means no such curve, though single readings can be large or run the other way; also: 0% is about no effect; nearly all actives have a fitted effect of over 55% in size; growth read by luminescence after 48 h
Cruzain inh Det – qHTS Assay for Promiscuous and Specific Inhibitors of Cruzain (with detergent); purified cruzain, Z-FR-AMC fluorescence, 0.01% Triton; Potency, µM, for the others: max response, negative = inhibition, usual class: inhibitors; actives 0.43% (n = 200,000);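 also: plate controls were neutral wells for no effect and buffer without enzyme for full effect; nearly all actives have a fitted effect of over 40% in size; top concentration of the series not given in the record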
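Cruzain (1.5 nM) preincubated 15 min at RT with compound in 100 mM sodium acetate pH 5.5, 5 mM DTT, 0.01% Triton X-100. Reaction started with 2 uM Z-FR-AMC; AMC fluorescence (ex 360/em 450 nm) change over 60 s gave rate.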
MARV entry inh – qHTS for inhibitors of binding or entry into cells for Marburg Virus; Marburg virus pseudotyped entry inhibition, cell reporter; control for the full effect not named in the record; about a third of the inactives were read at about 46 µM; Potency, µM (series often up to 37.8 µM), for inactives: at the top dose activity change, negative = inhibition, actives largely listed as inhibitors; actives 1.8% (n = 300,000); AID 540276, 2011; active = well fitted inhibition curve with a large enough effect; inconclusive = small, poorly fitted or top-dose-only effect, or effect the other way; inactive = flat fitted curve, though single readings scatter; tested in HEK293 cells; about a fifth of its hits are not listed in these tables; also: % is scaled to controls: 0 for no effect and ±100 for the full control effect; luciferase read-out
LASV entry inh – qHTS for Inhibitors of binding or entry into cells for Lassa Virus. Lassa virus pseudotype entry inhibition, cell reporter; control for the full effect not named in the record. Potency, µM (titrated, usually from 37.9 µM), without a hit: top-dose activity change, negative = inhibition, usual class: inhibitors. actives 1.2% (n = 300,000); active means well fitted inhibition curve with a large enough effect; inconclusive means small, poorly fitted or top-dose-only effect, or effect the other way; inactive means flat fitted curve, though single readings scatter; tested in HEK293 cells; also: % is scaled to controls: 0 for no effect and ±100 for the full control effect; nearly all actives have a fitted effect of over 50% in size; luciferase read-out
NS1 inh – qHTS Assay for Inhibitors of Influenza NS1 Protein Function; S. cerevisiae slowed by influenza A NS1, growth recovery by OD600; Potency, µM (series often up to 46.1 µM), inactives show top-dose activity, positive = more growth; actives 0.4% (n = 270,000); active means well fitted rising curve with a large enough effect; inconclusive means small, poorly fitted or top-dose-only effect; inactive means no such curve, though single readings can be large or run the other way; also: nearly all actives have a fitted effect of over 50% in size
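OD600 was taken as the measure of yeast growth restored by compound in an NS1-expressing S. cerevisiae strain. Cells had been washed out of glucose medium and diluted 1:100 into galactose -URA medium, pH 6.0.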
An asterisk follows results filed as active; u = inconclusive; x = not tested or not shown; & = joins results of further samples; [ ] = another dose, or the depositor's remark. Unless noted, calls follow the shape of the dose curve; as a rule, active = well fitted curve in the direction sought with a large enough effect; inconclusive = small, poorly fitted or top-dose-only effect, or another doubt; inactive = no such curve, though single readings can be large; an effect the other way counts as inactive or inconclusive. Potency is read from the fitted curve at half-maximal effect.

SMILES	StopGo reporter	RE007 growth inh	Cruzain noTriton	SARS PLP yeast	Cruzain inh Det	MARV entry inh	LASV entry inh	NS1 inh
Cc1ccc2c(CC(=O)Nc3ccc(S(=O)(=O)N4CCCC(C)C4)cc3)coc2c1 (stereo not given)	0%	x	u	x	-7.5%	-3%[46.1 µM]	0%[46.1 µM]	x
CC(=NNC(N)=O)C1=C(O)C(C(C)C)NC1=O (stereo not given)	-1%	-3%	x	x	x	13%	14%	x
CC1CN(c2ccc([N+](=O)[O-])nc2)CC(C)O1 (stereo not given)	21%	3%	x	1%	x	3%[46.1 µM]	-7%	1%
COc1ccc(C(C#N)Nc2ccccc2)cc1 (stereo not given)	x	x	-9%	5%	9.8%	x	x	1%
CC(C(=O)Nc1ccccc1C(F)(F)F)n1nnc2sc3c(c2c1=O)CCCC3 (stereo not given)	-21%	x	-3%	x	1.1%	u	21%[46.1 µM]	x
COc1cc(OC)cc(C(=O)OCC(=O)Nc2ccc(N3CCCCC3)cc2)c1	6%	3%	u	14%	-0.3%	7%[46.1 µM]	3%	-1%
CC(C)n1c(O)c(C=NCc2cccnc2)c(=O)[nH]c1=S	-26%	23%	x	0%	x	x	x	3%
CC(=O)Nc1ccc(S(=O)(=O)NNC(=O)COc2cccc(C)c2)cc1	-5%	6%	-1%	-1%	4.0%	-1%[46.1 µM]	-18%	2%
CN(C)c1ccc(C2SCCN2C(=O)c2ccc([N+](=O)[O-])cc2)cc1 (stereo not given)	-20%	18%	0%	-14%	-2.9%	u	-2%	-10%
COc1ccccc1C(=O)Nc1ccc(S(=O)(=O)Nc2ncccn2)cc1	-15%	x	20%	x	-1.8%	x	3%[46.1 µM]	x
CCNS(=O)(=O)c1ccc(CCC(=O)Nc2ccc3c(c2)OCCO3)cc1	3%	5%	x	2%	x	x	x	7%
C=CCSc1cc(C)nc2c(-c3ccc(Cl)cc3)c(C)nn12	-14%	8%	3%	-1%	-6.7%	-5%	1%	6%
NC(=O)C1CCN(C(=O)CSCc2ccccc2Cl)CC1	57%[activator]	2%	-10%	9%	4.2%	20%	1%	0%
Cn1cc(/C=C(\NC(=O)c2ccccc2Cl)C(=O)N2CCOCC2)c2ccccc21	4%	-2%	x	2%	x	x	x	-7%
O=C(NCCC1=CCCCC1)c1ccc2c(c1)N(Cc1ccccc1)C(=O)c1ccccc1S2(=O)=O	1%	x	u	x	-3.4%	u	u	x

Compound profiles, from the list above. Screens in order: StopGo reporter	RE007 growth inh	Cruzain noTriton	SARS PLP yeast	Cruzain inh Det	MARV entry inh	LASV entry inh	NS1 inh
CC(=O)Nc1ccc(S(=O)(=O)NNC(=O)COc2cccc(C)c2)cc1 as listed: -5%	6%	-1%	-1%	4.0%	-1%[46.1 µM]	-18%	2%
CCNS(=O)(=O)c1ccc(CCC(=O)Nc2ccc3c(c2)OCCO3)cc1 as listed: 3%	5%	x	2%	x	x	x	7%

(continued)
SMILES	StopGo reporter	RE007 growth inh	Cruzain noTriton	SARS PLP yeast	Cruzain inh Det	MARV entry inh	LASV entry inh	NS1 inh
O=c1[nH]ncn2cccc12	-25%	-2%	-3%	4%	1.2%	u	2%	13%
Cc1nc2c(C)cccc2c2c1CCN2c1ccccc1F	u	-1%	x	-1%	x	u	-22%[46.1 µM]	2%
Cc1ccc(N=Nc2c(O)[nH]c(=O)[nH]c2=O)c([N+](=O)[O-])c1	-16%	-3%	-8%	8%	-3.3%	-10%	u	-2%
CCOC(=O)c1cc(S(=O)(=O)Nc2cc(F)ccc2C)[nH]n1	26%	x	13%	x	-1.0%	x	14%[46.1 µM]	x
C/C(CC(=O)Nc1cc(C)ccn1)=N\NC(=O)c1ccc(C(C)(C)C)cc1	-4%	-20%	x	9%	x	4%[46.1 µM]	8%[46.1 µM]	11%
COc1cc(NC(=O)[C@H]2CSCN2C(=O)[C@@H]2CCC(=O)N2)cc(OC)c1OC	-20%	6%	x	-1%	x	3%[46.1 µM]	1%[46.1 µM]	3%
COc1cccc(N2CCN(c3ccc4nnc(CCC(=O)N5CCC(C)CC5)n4n3)CC2)c1	-17%	-5%	x	7%	x	0%[46.1 µM]	u	1%
COCCN(C(=O)COC(=O)CCOc1ccccc1)c1c(N)n(Cc2ccccc2)c(=O)[nH]c1=O	u	4%	x	1%	x	-2%	10%	x
NC(=O)C1CCN(C(=O)CCSCc2ccccc2)CC1	9%	9%	x	u	x	x	x	-1%
CCCCC(=O)Nc1ccc(C(=O)Nc2ccc3c(c2)OCO3)cc1	x	-3%	u	3%	2.3%	7%	20%	12%
CCOC(=O)CN(C(=O)CNC(=O)c1ccco1)C(C(=O)NC1CCCCC1)c1cccc(OC)c1 (stereo not given)	4%	-14%	7%	-1%	1.8%	3%&-1%	0%	-5%
Cc1cccc(OCC(=O)Nc2ccc(C(=O)OCc3cc(=O)n4nc(C5CC5)sc4n3)cc2)c1	-8%	x	1%	x	1.5%	x	u	x
CCO[C@H]1OC(C(N)=O)=C[C@@H](c2ccccc2)[C@@H]1CCCO	-3%	-2%	x	1%	x	x	x	10%
COc1c(C)cc(Br)cc1C(=O)Nc1ccc(C)cc1[N+](=O)[O-]	-9%	2%	25µM*	-25%	0.9%	28%	3%	11%
CCCCNC(=O)c1cc(Sc2ccc(OCC)cc2)nc2ccccc12	-10%	x	-4%	x	0.2%	x	1%[46.1 µM]	x
O=C(O)Cn1c2c(c3ccccc31)CSc1ccc(Cl)cc1-2	-8%	-4%	x	-1%	x	6%[46.1 µM]	18%	-43%
Cc1ccccc1OCCN1CCCC1	-21%	-1%	x	-5%	x	x	x	7%
Cn1cc(C(=O)NC2CCCCC2)c(=O)c2cc(S(=O)(=O)N3CCCC3)ccc21	-3%	1%	u	-1%	-8.8%	0%	-7%	-1%
N#CC1=C(SCC(=O)c2ccc(Cl)cc2)NC2=C(C(=O)CCC2)C1c1ccco1 (stereo not given)	u	11%	-21%	3%	-12%	u	u	u
CCc1ccc2occ(CC(=O)Nc3sc4c(c3C(=O)NCCOC)CCCC4)c2c1	-9%	x	-4%	x	-3.9%	u	u	x
CCCCN(CCCC)C(=O)CCS(=O)(=O)c1ccc2c(c1)n(C)c(=O)c(=O)n2C	-14%	-5%	-14%	0%	5.6%	1%	2%	-1%
O=C(CCS(=O)(=O)Cc1ccc(Cl)cc1)NCCc1ccccc1	-10%	11%	x	-3%	x	7%[46.1 µM]	-22%[46.1 µM]	x
CN(C)CCCN1C(=O)C(O)=C(C(=O)c2cc3ccccc3o2)C1c1ccccc1 (stereo not given)	-9%	-2%	8%	4%	-1.5%	11%	6%	-12%
O=C(CCn1cccc1)NCc1ccc(Cl)cc1	-16%	-13%	7%	-11%	5.8%	4%	5%	1%
O=C(CCS(=O)(=O)c1ccc(Br)s1)NCc1cccs1	-6%	-8%	-3%	-3%	2.8%	-12%	-1%	-3%
COc1ccc(CCn2c(N)c(C(=O)NCc3ccco3)c3nc4ccccc4nc32)cc1	-27%	15%	u	-41%	-15%	u	u	5%
CC(CCc1ccccc1)NC(=O)CN(C)Cc1ccc(F)cc1 (stereo not given)	-16%	-15%	x	0%	x	u	u	-6%
CCOC(=O)C1CCCN(C2=NC(=O)/C(=C/c3ccc(OC)cc3)S2)C1 (stereo not given)	2%	11%	x	-3%	x	x	x	-8%
Cn1nc(C(=O)NNC(=O)COc2ccccc2)c2ccccc2c1=O	-25%	-2%	16%	1%	0.8%	-17%	-2%	-8%
COc1ccccc1NC(=O)C1=C(C)NC(=O)NC1c1ccc(C)cc1 (stereo not given)	-18%	12%	-5%	4%	-4.1%	x	x	-8%
CCCNC(=O)c1c(N)n(-c2ccc(S(N)(=O)=O)cc2)c2nc3ccccc3nc12	-17%	-17%	-12%	3%	1.0%	1%	4%	18%
CC(C)C(C)NC(=O)CN1C(=O)NC2(CCCCCC2)C1=O (stereo not given)	22%	-11%	x	0%	x	0%[46.1 µM]	13%[46.1 µM]	x
CCOC(=O)c1c(-c2ccc(OC)cc2)oc2cc(Br)c(O)cc12	-5%	3%	x	1%	x	x	x	-3%
Cc1cc2nc(-c3ccc(SCc4ccccc4C#N)nc3)[nH]c2cc1C	x	0%	u	7%	-3.9%	u	u	18%
Cc1cccc(NS(=O)(=O)c2ccc(C(=O)NCCCN3CCOCC3)cc2)c1C	-27%	-5%	x	x	x	-12%	5%	6%
Cc1ccc2nc(SCC(=O)N3CCCC3)nc(=O)n2c1	-9%	11%	x	-7%	x	14%	7%	x
Cc1nc(-c2cn[nH]c2)c2cc(C)oc2n1	-9%	9%	8%	3%	2.0%	1%&1%[46.1 µM]	u	3%
COc1ccc(CCNC(=O)CSc2ccc(-c3cccs3)nn2)cc1	-9%	-8%	x	-4%	x	-3%[46.1 µM]	x	x
O=C(C1CC1)N1CCN=C1SCc1cccc(C(F)(F)F)c1	-27%	-9%	3%	-2%	-1.8%	-7%[46.1 µM]	2%	0%
CC(=O)Oc1ccc(S(=O)(=O)c2ccc(OC(C)=O)cc2)cc1	0%	50%	x	0%	x	8%	16%	x
O=C(Nc1cccc(Cl)c1)NC1CC2CCC(C1)N2Cc1cccs1 (stereo not given)	-8%	-4%	x	-1%	x	x	x	3%
CCOC(=O)C(C(=O)OCC)C1CCS(=O)(=O)C1 (stereo not given)	13%	15%	6%	19%	4.4%	5%	17%	0%
CCCCN(C)CCCNC(=O)Cn1ncc2c3ccccc3n(Cc3cccc(Cl)c3)c2c1=O	0%	x	-5%	x	-9.3%	u	-1%[46.1 µM]	x
CC1CC(C)(C)CC2(C1)NC(=O)N(CC(=O)NCC(c1ccco1)N1CCCCC1)C2=O (stereo not given)	4%	-7%	4%	-3%	3.7%	-7%[46.1 µM]	2%	0%
COc1cc(C(=O)NCc2nnc(SCC(=O)Nc3nccs3)o2)cc(OC)c1OC	-1%	4%	x	1%	x	28%[46.1 µM]	12%	x
COc1ccnc(Oc2ccc(Cl)cc2)c1C#N	19%	11%	x	-3%	x	-2%[46.1 µM]	-2%[46.1 µM]	x

From PubChem BioAssay
